Screening data as filed in PubChem.
VACV Venus inh – vaccinia inhibition (Venus reporter). Vaccinia virus Venus reporter expression, fluorescence. Potency, µM (top dose mostly 36.5 µM), for inactives: at the highest dose activity change, negative = inhibition, most hits filed as inhibitors. 330,000 compounds, 0.46% hits. AID 720580; active means well fitted inhibition curve with a large enough effect; inconclusive means small, poorly fitted or top-dose-only effect; inactive means no such curve, though single readings can be large or run the other way; tested in A549 cells; also: nearly all actives have a fitted effect of over 30% in size; inactives centre near -10
Vaccinia mCherry – inhibitors of vaccinia virus infection (mCherry reporter signal); AID 720579; Vaccinia virus mCherry reporter infection, fluorescence; about a quarter of the inactives have no number; 310,000 compounds, 0.63% hits; Potency, µM (titrated, usually from 36.5 µM), for inactives: top-dose activity change, negative = inhibition, hits mostly inhibitors; active = well fitted inhibition curve with a large enough effect; inconclusive = small, poorly fitted or top-dose-only effect; inactive = no such curve, though single readings can be large or run the other way; tested in A549 cells; also: nearly all actives have a fitted effect of over 35% in size; inactives centre near -10
An asterisk follows results filed as active; i = inactive; u = inconclusive; x = not tested or not shown; [ ] = another dose, or the depositor's remark. % is scaled to controls: 0 for no effect and ±100 for the full control effect; potency is read from the fitted curve at half-maximal effect.

SMILES | VACV Venus inh | Vaccinia mCherry
Cc1cc(Cl)c2oc(C(=O)NCC(C)(C)N3CCOCC3)c(C)c2c1 | 1.7% | i
COC(=O)c1nn(-c2ccccc2)nc1-c1nn(-c2ccccc2)nc1C(=O)OC | -20.3% | -22.7%
Cc1ccc(NC(=O)CSc2nnc(Cc3ccccc3)o2)c(C)c1 | 5.2% | i
Cc1cccc(N2CCN(C(=O)C3CCN(S(=O)(=O)c4cccs4)CC3)CC2)c1C | -19.9% | u
Cc1c(Cl)cccc1NC(=O)Nc1cc(C(C)(C)C)nn1C | -11.8% | i
COc1ccccc1-c1nc(S(=O)(=O)c2ccccc2)c(N2CCOCC2)o1 | -10.7% | i
CSc1ccc(Cl)c(C(=O)NCCOc2cc(C)ccc2C(C)C)c1 | -13.9% | -1.3%
CCCOc1ccccc1C1NC(=O)NC(C)=C1C(=O)OCCOC(C)C (centres undefined) | -26.4% | -8.5%
O=C(CCCn1c(=O)[nH]c2ccsc2c1=O)NC1CCCCC1 | -8.7% | -11.8%
CCOc1ccc(NC(=O)Cn2nnc(-c3ccccc3NC(=O)C3CC3)n2)cc1 | -10.0% | i
CN1CCN(c2nc(-c3ccc(Br)cc3)nnc2-c2ccccc2)CC1 | -27.5% | u
Cc1ccc(S(=O)(=O)NC(C(=O)N2CCOCCOCCOCC2)C(C)C)cc1 (centres undefined) | 3.3% | 21.0%
N#Cc1c(F)cccc1N1CCC(C#N)CC1 | -13.6% | -10.5%
NS(=O)(=O)c1ccc(CCNC(=O)c2cccc([N+](=O)[O-])c2)cc1 | -18.1% | -13.4%
CC(=O)c1ccc(NS(=O)(=O)c2cccc3cccnc23)cc1 | -11.9% | -0.6%
CN(C)C(=S)N=c1ssc(=S)n1Cc1ccccc1 | u | -23.0%
CC(C)CN(C(=O)CCCSc1nc2ccccc2[nH]1)c1c(N)n(Cc2ccccc2)c(=O)[nH]c1=O | -17.1% | -13.8%
Cc1ccc(S(=O)(=O)N2CCN(C(=O)CN3CCc4ccccc4C3)CC2)cc1 | -22.0% | -17.9%
COc1cc(/C=C/C(=O)N(Cc2ccccc2)c2ccccn2)cc(OC)c1OC | -17.8% | -25.3%
O=C(Cc1cccs1)Nc1nnc(SCc2ccc(C(F)(F)F)cc2)s1 | -18.4% | -18.7%

Exported with two lines to a compound: part of the list above.
Every second line gives: VACV Venus inh | Vaccinia mCherry
- CCOc1ccc(NC(=O)Cn2nnc(-c3ccccc3NC(=O)C3CC3)n2)cc1
    -10.0% | i
- CN1CCN(c2nc(-c3ccc(Br)cc3)nnc2-c2ccccc2)CC1
    -27.5% | u
- Cc1ccc(S(=O)(=O)NC(C(=O)N2CCOCCOCCOCC2)C(C)C)cc1 (centres undefined)
    3.3% | 21.0%

(cont.)
SMILES | VACV Venus inh | Vaccinia mCherry
Cc1ccc(S(=O)(=O)c2nc(C)oc2N2CCOCC2)cc1 | -1.7% | i
COc1ccc(CC(=O)N2CCC(CCC(=O)Nc3ccccc3)CC2)cc1 | -1.6% | -25.0%
COc1ccccc1Oc1ccc(S(=O)(=O)N2CCCCC2)cc1NC(=O)CCNC(C)=O | -7.1% | i
Cc1cccc(C)c1-n1nnnc1C(c1ccnc2ccccc12)N1CCN(c2ccccc2F)CC1 (centres undefined) | -4.9% | -24.3%
O=C(COC(=O)C1(c2ccc(Cl)cc2)CCCC1)NCc1ccco1 | 1.0% | 0.1%
CCc1ccc(-c2cc(C)no2)cc1S(=O)(=O)Nc1ccc(Cl)cc1 | -28.0% | -25.7%
COC(=O)c1cc(NC(=O)C2(S(=O)(=O)c3ccc(Cl)cc3)CC2)cc(C(=O)OC)c1 | -4.0% | i
COc1ccccc1Oc1nc2c(C)cccn2c(=O)c1/C=C(\C#N)c1nc2ccccc2[nH]1 | 14.9% | 8.1%
COc1ccc(N/C=C/C(=O)C(F)(F)F)cc1 | -18.0% | -0.2%
CCOc1ccc(NC(=O)Cn2c(=O)n(Cc3ccccc3)c(=O)c3sc4ccccc4c32)cc1 | -9.1%[7.34 µM] | 2.5%[7.34 µM]
C[C@@H]1CN([C@@H](C)CO)C(=O)CCCn2nncc2CO[C@H]1CN(C)Cc1cccnc1 | -7.1% | i
COC(=O)C1=C(c2ccc(F)cc2OCc2ccccc2)C[C@@H]2CC[C@H]1N2C(=O)NCCc1ccc(F)cc1 | u | u
Cc1ccccc1Cc1n[nH]c(=S)n1N | -11.7% | -15.0%
Cc1ccc(-n2[nH]c(C)c(/C=N/c3ccccn3)c2=O)cc1 | -17.2% | i
O=C(NC12CC3CC(CC(C3)C1)C2)c1ccc(-c2ccc(Cl)cc2)o1 | -21.1% | -20.6%
Cc1[nH]c2ccccc2c1-c1csc(NC(=O)CN2CCOCC2)n1 | -16.6% | -17.9%
CCc1ccc(-n2c(=O)c3c4c(sc3n(Cc3cc(=O)n5c(C)cccc5n3)c2=O)CCC4)cc1 | -11.1% | i
O=C(NCC(c1cccnc1)N1CCN(c2ccccc2F)CC1)OCc1ccccc1 (centres undefined) | -25.9% | -13.8%
O=C(O)/C=C\c1ccccc1Oc1ccc(F)cc1 | -8.4% | -11.4%
CCN(Cc1ccccc1)c1ccc(/C=N/NS(=O)(=O)c2ccc(C)c([N+](=O)[O-])c2)cc1 | -9.9% | -12.6%

Retrieved one by one from the entries so far (5):
SMILES | VACV Venus inh | Vaccinia mCherry
Cc1[nH]c2ccccc2c1-c1csc(NC(=O)CN2CCOCC2)n1 | -16.6% | -17.9%
COc1ccc(CC(=O)N2CCC(CCC(=O)Nc3ccccc3)CC2)cc1 | -1.6% | -25.0%
Cc1ccc(S(=O)(=O)c2nc(C)oc2N2CCOCC2)cc1 | -1.7% | i
COc1ccccc1Oc1ccc(S(=O)(=O)N2CCCCC2)cc1NC(=O)CCNC(C)=O | -7.1% | i
O=C(O)/C=C\c1ccccc1Oc1ccc(F)cc1 | -8.4% | -11.4%

Carrying on.
SMILES | VACV Venus inh | Vaccinia mCherry
Cc1ccc(S(=O)(=O)N(C)C)cc1NC(=O)CN1CCCC1 | -4.7% | -5.8%
CN(C)NC(=O)c1cccc(Cl)c1 | -14.8% | -5.3%
C[C@@H]1CN([C@@H](C)CO)C(=O)Cc2cc(NS(=O)(=O)c3cn(C)cn3)ccc2O[C@@H]1CN(C)C(=O)Nc1ccccc1 | -6.8% | i
O=C(c1ccco1)N1CCN(S(=O)(=O)c2ccc3c(c2)CCN3C(=O)C2CC2)CC1 | -28.6% | -2.2%
O=C(Nc1ccncc1)c1ccc(Cl)c(Cl)c1 | -9.0% | -12.9%
C[C@]12CC[C@H](O)CC1=CCC1C2CC[C@@]2(C)C1CC[C@@H]2NCc1ccccc1 (some centres undefined) | u | -21.8%
Fc1ccccc1CNCCc1c[nH]c2ccccc12 | -5.8% | -11.7%
CC(=O)Nc1ccc(S(=O)(=O)N(C)CC(=O)N2CCN(C(=O)c3ccco3)CC2)cc1 | 19.8% | -14.0%
CCCCN(CCCNC(=O)c1cc(Nc2ccc(OC)cc2)nc2ccccc12)Cc1ccccc1 | -23.8% | -20.5%
Cc1nn(CCCC(=O)NCCc2ccc(Cl)cc2)c(=O)c2nn(-c3ccccc3)c(C)c12 | u | u
C[C@H]1NC(=O)[C@@]2(C)[C@@H](c3ccccc3)[C@H]3COc4ccccc4[C@H]3N2C1=O | -9.9% | i
OC(CNCCc1ccc(Cl)cc1Cl)COc1ccccc1 (centres undefined) | -28.3% | -20.3%
O=c1c2cccc(Cl)c2nc2n1Cc1ccccc1-2 | -7.5% | 9.4%
Cc1ccc(C(=O)NCCCN2CCOCC2)c(C)c1 | 2.2% | i
CCOC(=O)COc1ccc(CC)cc1C(=O)c1ccn2nc(-c3ccccc3)cc2n1 | -2.6% | -4.8%
Cc1nc2ccn(Cc3cccs3)c(=O)c2cc1C(=O)N1CCN(c2ccc(F)cc2)CC1 | -2.4% | -2.2%
O=C(COC(=O)c1cc(-c2cccc3ccccc23)nc2ccccc12)NC1CCS(=O)(=O)C1 (centres undefined) | 31.0%[activator] | 12.3%
O=C(COC(=O)/C=C/c1cnc2ccccc2n1)NCC(F)(F)F | -6.6% | -17.9%
Cc1cc(C)nc(SCc2nnc(SCC(N)=O)n2Cc2ccco2)n1 | -13.7% | -13.0%
Cc1cc(NC(=O)c2cc(F)c(F)cc2Cl)no1 | -4.2% | -16.1%
Cc1cccc2sc(N(CCCN(C)C)C(=O)COc3ccc(Cl)cc3)nc12 | -13.5% | u
C=CCNC(=S)NNC(=O)c1csc(C)c1C | -15.0% | -16.9%
Cc1ncoc1C(=O)NCC1=C(c2ccc(S(C)(=O)=O)cc2)C[C@@H]2CC[C@H]1N2Cc1ccco1 | -8.0% | i
CN(C)CCNC(=O)C(=O)NCC(c1ccc2c(c1)OCO2)N1CCN(c2ccc(F)cc2)CC1 (centres undefined) | -11.7% | u
Fc1ccc2c(c1)/C(=N/Nc1ccccn1)CCS2 | 4.3% | -2.4%
CC1CC(C)(C)CC2(C1)NC(=O)N(CC(=O)N1CCN(Cc3ccc(C#N)cc3)CC1)C2=O (centres undefined) | -25.0% | u
Cc1ccccc1Nc1c(-c2cccc(N(C)C)c2)nc2ccc(Br)cn12 | -9.0% | -13.1%
CCOC(=O)CCC(NC(=O)CCCCC(=O)NC(CCC(=O)OCC)C(=O)OCC)C(=O)OCC (centres undefined) | -0.1% | i
Cc1ccc(Cn2c(CN3CCC(C(=O)NCCc4ccccc4)CC3)cc3ccccc32)cc1 | -18.7% | -10.8%
SC(COCc1ccccc1)CN1CCN(Cc2ccc3c(c2)OCO3)CC1 (centres undefined) | -6.7% | -0.9%
CN(C)c1ccc(C2/C(=C(/O)c3ccccc3)C(=O)C(=O)N2CCCC(=O)O)cc1 (centres undefined) | 0.5% | i
Nc1nc(N)nc(-c2cc(C(F)(F)F)ccc2Cl)n1 | -5.8% | i
Cc1cc(N2C(=O)C(O)=C(C(=O)c3ccco3)C2c2ccc([N+](=O)[O-])cc2)no1 (centres undefined) | -11.5% | -12.3%
O=C(Nc1ccc(S(=O)(=O)N2CCCC2)cc1)c1ccc(F)cc1 | -6.3% | i
BrC(=C\c1ccccc1)/C=N/Nc1nc2ccccc2[nH]1 | -21.7% | -17.7%
COc1ccc(C2c3ccc4ccccc4c3Oc3ncn(CCO)c(=N)c32)cc1OC (centres undefined) | u | -2.8%
COc1ccc(-c2nc3scc(CCNS(=O)(=O)c4c(C)noc4C)n3n2)cc1OC | -5.4% | -14.1%
Cc1[nH]n(-c2ccccc2)c(=O)c1C=Nc1cnc2ccccc2c1 | -7.1% | x
CC(C)C/C(=N/O)c1cn(C)c2ccccc12 | -14.0% | -16.8%
CC(C)C[C@@]12C(=O)N(c3cccc(F)c3)C(=O)N1[C@H](c1ccc(F)cc1)[C@@H]1C(=O)N(C3CCCCC3)C(=O)[C@@H]12 | -13.3% | i
OC(CNCc1cccnc1)COc1ccc2ccccc2c1 (centres undefined) | -15.5% | -8.7%
O=S(N1CCc2ccccc21)C12CC3CC(CC(C3)C1)C2 (centres undefined) | -12.4% | -9.7%
COc1ccc(NCc2cc(=O)oc3cc(NC(C)=O)ccc23)cc1 | -8.4% | -8.4%
COc1ccc(CC(=O)NC(C)c2nnc(SCc3nc4ccccc4c(=O)[nH]3)n2C)cc1 (centres undefined) | 1.6% | x
CCc1ccccc1N(C)C(=O)c1cnc(N2CCOCC2)c2ccccc12 | -19.6% | -12.9%
COc1ccc(C=NNC(=O)CCCC(=O)NN=Cc2ccc(OC)c(O)c2)cc1O | -2.9% | i
O=S(=O)(c1ccc2c(c1)OCCO2)N1CCC(c2nc3ccc(Cl)cc3[nH]2)CC1 | u | u
S=c1[nH]nc(C2COc3ccccc3O2)o1 (centres undefined) | -21.6% | -3.0%[1.46 µM]
CCCCc1nc2ccccc2n1CC(=O)N(COCC)c1c(C)cccc1CC | -10.0% | 24.2%
Cc1ccc(NC(=S)NCc2ccc(S(N)(=O)=O)cc2)c(C)c1 | -14.3% | i
Cc1c(C(=O)O)cccc1-c1ccc(/C=C2/NC(=O)N(c3ccccc3)C2=O)o1 | -2.6% | i
CNC(=O)C1CCN(S(=O)(=O)c2c(C)noc2/C=C/c2ccccc2F)CC1 | -16.8% | i
CCCc1cc(-n2ccnc2C)n2c(nc3ccccc32)c1C#N | -10.6% | 15.6%
O=C(Nc1ccc2c(c1)OCO2)C1CC(c2ccc(Cl)cc2)=NO1 (centres undefined) | -26.3% | -3.7%
O=C(NNC(=O)c1ccco1)c1csc(N2CCOCC2)n1 | -4.4% | -16.0%
Cc1onc(-c2ccccc2Cl)c1C(=O)Nc1ccc(Br)cc1 | -4.0% | -16.6%
CC1CCCN(S(=O)(=O)c2ccc(NC(=O)c3nc(SC(C)C)ncc3Cl)cc2)C1 (centres undefined) | -10.8% | -22.8%
COc1ccc(-n2c(=O)c3ccccc3n(CC(=O)NC3CCCCC3)c2=O)cc1 | -8.6% | -17.0%
C[C@@H]1CC[C@H]2C(=O)N3[C@@H](CC[C@@H](C)[C@@H]3c3ccc(Br)cc3)C(=O)N2[C@H]1c1ccc(Br)cc1 | -16.3% | u
N#Cc1ccccc1COC(=O)c1cccnc1N | -9.3% | -4.0%
Other structures:
SMILES | VACV Venus inh | Vaccinia mCherry
O=c1[nH]/c(=C\c2ccc([N+](=O)[O-])cc2)c(=O)[nH]/c1=C\c1ccc([N+](=O)[O-])cc1 | -6.3% | 7.8%
Cc1cccc(C)c1OCc1cc(C(=O)N(C)CCc2ccccn2)no1 | 0.5% | i
Cc1ccc(N(C(=O)CNC(=O)c2ccco2)C(C(=O)NC2CCCCC2)c2ccncc2)c(C)c1 (centres undefined) | -5.7% | -21.4%
COc1ccc(C(C)=O)cc1COC(=O)c1ccc2c(c1)OCO2 | u | -1.4%
O=Cc1c(NCc2cccc(F)c2)c2ccccc2[nH]c1=O | -6.6% | -1.4%
